HCMV NEC inh: disrupts HCMV UL50-UL53 complex binding; AID 1918969; inhibition, % (no concentration beside the values); 190,000 tested, 0.15% active; HTRF UL50-UL53 interaction, normalized percent inhibition;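 active means both replicates at 50% or more, plus weaker picks with an unusually low signal ratio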;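 further: stock transfer was 100 nL into about 20 µL; 0% = negative control wells and 100% = wells with untagged competitor protein; inactives centre near -12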
An asterisk follows results filed as active; & = joins results of further samples. Some of the compounds tested; rates above refer to the full screens.

SMILES	HCMV NEC inh
O=C(c1c(O)c2ccc(Cl)cc2[nH]c1=O)C1CC1	-1
CCc1[nH]c(-c2ccc(OC)cc2)nc1-c1ccncc1	-8
COc1ccc(CC(NC(=O)C(C)NC(=O)CN2CCOCC2)C(=O)NC(Cc2ccccc2)C(=O)[C@]2(C)CO2)cc1 (some centres not stated)	2
COc1ccc(C2CC(=O)n3nc(-c4ccc(F)cc4)nc3S2)cc1OC (configuration not stated)	-3
OCCNc1nc(-c2ccccc2)c2cc(Cl)ccc2n1	-2
O=C(CCc1ccccc1)Nc1nc2ccc(F)cc2s1	-7
O=C(O)c1ccc(S(=O)(=O)N2CCCCC2)cc1	-16
Cc1ccc2c(c1)C(c1ccccc1)N(C(=O)CC(C)C)CC(=O)N2 (configuration not stated)	-1
COC(=O)C1=C(NC(=O)C23CC4CC(CC(C4)C2)C3)CCS1	-10
Cc1ccc(S(=O)(=O)N2CCCC(C(F)(F)F)C2)s1 (configuration not stated)	0
Cc1ccc(C(=O)Cn2c(C)[n+](C)c3ccccc32)cc1	-20
O=C(CCCN1C(=O)/C(=C\c2ccco2)SC1=S)Nc1ccccc1C(F)(F)F	-10
O=c1cc(-c2ccccc2)oc2c1Cc1ccccc1-2	-12
COc1ccc(-c2csc(-n3nc(C)cc3C)n2)cc1	-5
CCCCC/C=C\C/C=C\C/C=C\C/C=C\CCCCCC(=O)O	-17&-17&-4
Nc1[nH]ncc1S(=O)(=O)c1ccccc1	-2
Nc1ccccc1CNc1nc(NCCO)nc2c1ncn2CCN1CCOCC1	-6
Cc1cn(S(=O)(=O)c2ccc(Br)c3ccccc23)cn1	-16
O=S(=O)(Nc1ccccn1)c1ccc2c(c1)OCCO2	-20
CCOC(=O)c1c(-c2ccccc2)oc2ccc(OCC(N)=O)cc12	-19
OC[C@H]1O[C@H](O[C@H]2[C@H](O)[C@@H](O)[C@H](O)O[C@@H]2CO)[C@H](O)[C@@H](O)[C@@H]1O	-58
CC(CNC(=O)c1cc(-c2ccco2)[nH]n1)c1ccccc1 (configuration not stated)	-17
COC(=O)c1cc(C(=O)Cc2ccccc2)c[nH]1	-4
Oc1ccc(-c2c(-c3ccccc3)nn3c(C(F)(F)F)cc(C(F)(F)F)nc23)cc1	7
Cc1cc(C2CCCCC2)ccc1O	-21
O=C1CSC(=S)N1c1cccc(O)c1	12
O=C(O)CCCCCC[C@H]1C(=O)C[C@@H](O)[C@@H]1/C=C/[C@@H](O)Cc1ccccc1	-12&-12
COc1cccc(C(=O)Nc2ccc(-c3csc(C)n3)cc2)c1	-14
CC(C)(C)OC(=O)N1Cc2ccccc2C[C@H]1C(=O)NCCN1CCOCC1	0
O=C(O)CCN1C(=O)/C(=C/c2ccc(-c3ccccc3Cl)o2)SC1=S	-9
FC(F)(F)c1cc(Oc2ccccc2)nc(-c2ccccn2)n1	5
O=C(O)CCC(=O)Nc1nc(-c2ccc(Br)cc2)cs1	-11
C(=Nc1ccc(N2CCOCC2)cc1)c1ccc2c(c1)OCO2	-13
Nc1cccnc1-n1nc(C(F)(F)F)cc1C(F)(F)F	-5
Brc1ccc(-c2nnc3sc(-c4cccs4)nn23)cc1	-14
Cc1cccc(-c2nnc(NC(=O)c3c(F)cccc3F)s2)c1	-23
COc1ccc(C)cc1S(=O)(=O)N1CCN(c2ccccc2)CC1	-2
Oc1ccc(OC2CCCCO2)cc1 (configuration not stated)	8
COc1cc(NC(=O)c2csc(-c3ccncc3)n2)cc(C(=O)Nc2cccc(C(F)(F)F)c2)c1	-13
O=C(Nc1c2c(nn1-c1cccc(Cl)c1)CS(=O)C2)C1CCCC1 (configuration not stated)	-12
O=C(Nc1ccc(Cl)cc1)c1ccccc1NCc1ccncc1	1
CC1(C)CCC(C)(C)c2cc(NC(=O)c3ccc(C(=O)O)cc3)ccc21	-30
CCOc1ncccc1C(=O)NCc1ccc(OC)cc1	4
COc1ccc2c(Cl)c(-c3nnc(SCC(N)=O)n3C)sc2c1	-8
Cc1cc(C)n(-c2nc(-c3cccnc3)nc3ccccc23)n1	-16
CC1(C)C(C=C(Cl)Cl)C1C(=O)OCc1cccc(Oc2ccccc2)c1 (configuration not stated)	-30
O=C(/C=C/c1cccs1)Nc1ccc(-c2nc3ccccc3o2)cc1	-5
CC1=CCC2C(=O)N(c3ccc(O)cc3)C(=O)C2C1 (configuration not stated)	1
COC(=O)c1[nH]c2ccccc2c1I	-6
COc1ccccc1S(=O)(=O)Nc1ccc2c(c1)CN(C)C(=O)N2	-26
O=C(c1ccc(S(=O)(=O)N2CCCC2)cc1)N1CCc2ccccc21	0
Cc1ccc(SCc2nc3ncccn3c2Br)cc1	10
O=c1ncccn1[C@@H]1O[C@H](CO)[C@@H](O)[C@H]1O	0
CC(=O)N(CC(O)CN(C(C)=O)c1c(I)c(C(=O)NCC(O)CO)c(I)c(C(=O)NCC(O)CO)c1I)c1c(I)c(C(=O)NCC(O)CO)c(I)c(C(=O)NCC(O)CO)c1I (configuration not stated)	-32
Cc1oc2cc(OCC#N)ccc2c(=O)c1-c1ccc2c(c1)OCCCO2	5
O=C(Oc1ccc2ccccc2c1)c1ccccc1	-15
C=CCn1c(CCCNC(=O)c2cccs2)nc2ccccc21	-2
O=C(CN1CCOC1=O)NCCc1cccc(F)c1	-6
Cc1nn(CO)c(C)c1Sc1ccc(Cl)cc1	-41
O=C(OC1C[C@H]2CC[C@@H](C1)[N+]21CCCC1)C(O)(c1ccccc1)c1ccccc1 (some centres not stated)	86

(continued)
SMILES	HCMV NEC inh
CCCCC[C@H](O)/C=C/[C@@H]1[C@@H](C/C=C/CCCC(=O)O)[C@H](O)C[C@H]1O	-7&-7
Cc1cc(C(=O)Sc2cccc(C(F)(F)F)c2)nn1C(C)(C)C	1
C=C1C(=O)O[C@H](CCCCCCCC)[C@H]1C(=O)O	-19&-19
O=c1c(-c2cc3ccccc3o2)coc2ccccc12	-23
CCC(=O)NCc1nc2ccccc2n1Cc1ccccc1F	13
Cc1sc2nc(SCc3ccc(C(=O)NCCO)cc3)nc(N)c2c1C	-7
CCOC(=O)Cc1nc(-c2ccc(Cl)cc2)cs1	-3
COCCn1c(C(=O)OC)c(NC(=O)Cc2ccccc2)c2cc(NC(C)CCO)cnc21 (configuration not stated)	-9
COc1ccc(-c2csc(Nc3ccccc3)[n+]2C)cc1	0
CCC1=N/C(=C\c2ccc(C)cc2)C(=O)O1	-12
O=C1CCCC2=C1C(c1ccc(O)cc1)C1=C(CCCC1=O)O2	-3
COc1ccc2c(C)cc(SCC(=O)Nc3ccccc3)nc2c1	-12

Looked up one by one from the entries so far:
SMILES	HCMV NEC inh
COCCn1c(C(=O)OC)c(NC(=O)Cc2ccccc2)c2cc(NC(C)CCO)cnc21 (configuration not stated)	-9
O=C1CCCC2=C1C(c1ccc(O)cc1)C1=C(CCCC1=O)O2	-3
C=C1C(=O)O[C@H](CCCCCCCC)[C@H]1C(=O)O	-19&-19
CCCCC[C@H](O)/C=C/[C@@H]1[C@@H](C/C=C/CCCC(=O)O)[C@H](O)C[C@H]1O	-7&-7
CCC(=O)NCc1nc2ccccc2n1Cc1ccccc1F	13
Cc1cc(C(=O)Sc2cccc(C(F)(F)F)c2)nn1C(C)(C)C	1
Cc1sc2nc(SCc3ccc(C(=O)NCCO)cc3)nc(N)c2c1C	-7
CCC1=N/C(=C\c2ccc(C)cc2)C(=O)O1	-12
COc1ccc2c(C)cc(SCC(=O)Nc3ccccc3)nc2c1	-12

Carrying on:
SMILES	HCMV NEC inh
COc1ccc(/C=C/C(=O)Nc2nnc(-c3ccccc3)s2)cc1OC	-17
O=C1NC(=O)C(=Cc2cccc(C(F)(F)F)c2)S1	-21&-23&-19&-38
Cc1ccc(/C=C2/SC(=O)N(CCC(=O)N3CCN(C)CC3)C2=O)cc1	-33
c1coc(-c2ccnc3ncnn23)c1	-58
Nc1nc(Nc2ccc(S(N)(=O)=O)cc2)nn1C(=S)Nc1c(F)cccc1F	-20
Nc1ncnc2c1ncn2C1OC(CO)C(O)C1O (configuration not stated)	0&4
CCC(=O)Nc1ccc(-c2nc3ccc(C)cc3s2)cc1	-15
Cc1cc(C)n(C(=O)CNC(=O)c2ccccc2)n1	-9
CCCCC[C@H](O)/C=C/[C@@H]1[C@@H](C/C=C\CCCCCC(=O)O)[C@@H](O)C[C@H]1O	2&2
COC(=O)Nc1nc2ccc(SC(C)C)cc2[nH]1	-14
CCC(=O)Oc1ccc(N2C(=O)C3C4C=CC(C4)C3C2=O)cc1 (configuration not stated)	-7
CCc1nc2sccc2c(=O)[nH]1	5
Cc1ccc(C)c(CNC(=O)Nc2nc(C)ns2)c1	-13
CN(C)S(=O)(=O)c1ccc(C(=O)Nc2nc3c(s2)CCCC3)cc1	0
C[C@]12C[C@@]3(O)O[C@@H](O1)[C@]1(COC(=O)c4ccccc4)[C@H]3C[C@@]12OC1OC(CO)C(O)C(O)C1O (some centres not stated)	2
CCn1c2ccccc2c2nc3ccccc3nc21	-29
Cc1nc(C(=O)N2CCCC(Cn3cc(-c4ccsc4)nn3)C2)cs1 (configuration not stated)	1
Cc1nc2ccc(Br)cc2c(-c2ccccc2)c1C(=O)O	-1
NC(N)=NCC(=O)O	-29
C=CCSC1=C(C#N)C(C)(C)C(C#N)C(=O)N1 (configuration not stated)	-19
CN(C)CCOC(=O)C12CC3CCC(CC(C3)C1)C2	-2
CC1CC(C)CN(C(=O)CSc2nnc(COc3ccc(Cl)cc3)o2)C1 (configuration not stated)	-1
Cc1ccc(-c2csc(/C(C#N)=C/Nc3ccccc3)n2)cc1C	10
O=C(Nc1nc(-c2ccc3c(c2)OCCO3)cs1)c1ccccc1	-6
Cc1cccc(-n2c(SCC(=O)O)nnc2-c2cccs2)c1C	7
CC(=O)Nc1nnc(SCc2cccc(C(F)(F)F)c2)s1	-14
Clc1cc2c(c3ncccc13)OCN(C1CCCC1)C2	-36
CCOC(=O)N1CCN(CC(O)COCc2ccccc2)CC1 (configuration not stated)	-9
Cc1ccc(S(=O)(=O)N2CCCCC2C(=O)N(C)Cc2ccccc2)cc1 (configuration not stated)	-2
CCCCC[C@H](O)/C=C/C=C\C/C=C\C/C=C\CCCC(=O)O	-8
CCOC(=O)c1ccsc1NC(=O)C1CC1	1&1
Cc1c(C(=O)N2CCCCC2C)sc2nc(-c3ccccc3)cn12 (configuration not stated)	-10
CCCC(NC(=O)C(C#N)=Cc1cccc(Br)n1)c1ccccc1 (configuration not stated)	-3
CCN(CC)c1ccc2cc(-c3nnc(-c4cccs4)o3)c(=O)oc2c1	-14
COCc1cn(CC2CCN(C(=O)CC3CCCCCC3)CC2)nn1	-6
Cc1ccccc1Cn1cc(S(=O)(=O)CC(=O)N2CCCCCC2)c2ccccc21	-2
O=C(O)c1cc(N(Cc2ccccc2O)Cc2cc(O)ccc2O)ccc1O	-21
Cc1ccc(S(=O)(=O)Nc2cccc(C(=O)N3CCOCC3)c2)cc1	-2
Nc1[nH]nc2nc3ccccc3nc12	-68&-80
O=C(NCCSc1c[nH]c2ccccc12)c1ccc(N2C(=O)CCC2=O)cc1	7
Cc1cccc(OCCC(=O)O)c1	-1&-6
CCn1cc(CN(C(=O)c2cnc3ccccn3c2=O)C(C)C)cn1	-5
CN1Cc2c(C(=O)OC(C)(C)C)ncn2-c2ccsc2C1=O	7
CCn1ncc2[nH]c(-c3cnn(C)c3-c3ccccc3)nc21	-18&-18
O=S(=O)(O)CCSSCCS(=O)(=O)O	-14&-77
COc1ccccc1-c1nnc(SCC(=O)NC2CCCCC2)o1	3
COC(=O)c1ccc(C(=O)Nc2nc3ccc(C)cc3s2)cc1	-7
Cc1ccccc1NS(=O)(=O)c1ccccc1	-1

Part of the list above in order of length of the SMILES, lowest first.
SMILES	HCMV NEC inh
O=S(=O)(O)CCSSCCS(=O)(=O)O	-14&-77
Cc1ccccc1NS(=O)(=O)c1ccccc1	-1
COc1ccccc1-c1nnc(SCC(=O)NC2CCCCC2)o1	3
O=C(NCCSc1c[nH]c2ccccc12)c1ccc(N2C(=O)CCC2=O)cc1	7

Additional results follow.
SMILES	HCMV NEC inh
COCCn1c(C(=O)OC)c(NC(=O)c2ccco2)c2cc(NC3CCc4ccccc4C3)cnc21 (configuration not stated)	6
Nc1ccccc1NC(=O)c1ccc(CNc2nccc(-c3cccnc3)n2)cc1	-17
Cc1cc(C)c(-n2cccn2)c(-c2nc3c(cnn3C(C)C)[nH]2)c1	2
Cc1cc(NCc2ccccn2)n2c(nc3ccccc32)c1C#N	-12
CC(=O)[C@H]1CC[C@H]2[C@@H]3C=CC4=CC(=O)CC[C@@]4(C)[C@@H]3CC[C@]12C	-40
O=C(Nc1c(-c2ccccc2)c2cc(Br)ccc2[nH]c1=O)c1ccccc1	-11
COc1ccc(/C=C2\SC(=S)N(CCC(=O)Nc3ccc(C)cc3)C2=O)cc1OC	-18
CC(Oc1ccc(F)cc1)C(=O)Oc1ccc(Cl)cc1 (configuration not stated)	-5
O=c1ccc2ccc(OCc3ccc(F)cc3)cc2o1	-7
COc1ccccc1Cn1c(=O)oc2ccc(C)cc21	5&1
COc1ccccc1NC(=O)CCC(=O)O	-14
OC(COc1ccc(Br)cc1)Cn1nnc2ccccc21 (configuration not stated)	8
COc1ccc(-c2csc(N)n2)cc1	-22
CC(C)C(NC(=O)C12CC3(C)CC(C)(CC(C)(C3)C1)C2)C(=O)O (configuration not stated)	-4
COc1cccc2c(=O)n(CC(=O)N3CCCC3)ccc12	1
Cc1cc(NC(=O)CSc2c[nH]c3ccccc23)no1	6
O=C(O)c1ccc(C=C2SC(=S)N(c3cccc(C(F)(F)F)c3)C2=O)cc1	-31
Cc1cc(C)n(CC(C)n2cnc3cccc(C)c3c2=O)n1 (configuration not stated)	7
CC1CCC(C(C)C)C(OCC(O)CNC(C)C)C1 (configuration not stated)	-14
Cc1cc(Br)ccc1NC(=O)CCCc1c[nH]c2ccccc12	-9

Screens as filed in PubChem.
